Assay outcomes (PubChem)
Mtb growth = M. tuberculosis H37Rv growth inhibitors, H37Rv strain (AID 1626). inhibition, % at 10 µM; hits with a dose series show IC50 in µM. M. tuberculosis H37Rv growth inhibition; higher % means a stronger effect. 220,000 compounds, 0.95% hits;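 active = confirmed in a dose series; inconclusive = inhibition above 80% but not taken into the dose series; inactive = below 80% or under 30% at every dose of the series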;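 also: bacteria incubated seven days before Alamar blue readout; 0% = bacteria only wells and 100% = bacteria with antibiotic wells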
RecA intein inh = Mtb RecA intein splicing inhibitors, primary screen, biochemical, fluorescence, HTS; 290,000 compounds, 0.75% hits; cell-free RecA intein splicing; inhibition, %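 (about 9 µM by stock and volumes)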; Protein RecA (Mycobacterium tuberculosis (strain ATCC 25618 / H37Rv)), P9WHJ3; in the data active = inhibition above about 30%; inconclusive = no clear call, values can overlap the other calls;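 also: 0% = vehicle wells and 100% = reference inhibitor control wells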
Target sequence (P9WHJ3 whole entry, looked up): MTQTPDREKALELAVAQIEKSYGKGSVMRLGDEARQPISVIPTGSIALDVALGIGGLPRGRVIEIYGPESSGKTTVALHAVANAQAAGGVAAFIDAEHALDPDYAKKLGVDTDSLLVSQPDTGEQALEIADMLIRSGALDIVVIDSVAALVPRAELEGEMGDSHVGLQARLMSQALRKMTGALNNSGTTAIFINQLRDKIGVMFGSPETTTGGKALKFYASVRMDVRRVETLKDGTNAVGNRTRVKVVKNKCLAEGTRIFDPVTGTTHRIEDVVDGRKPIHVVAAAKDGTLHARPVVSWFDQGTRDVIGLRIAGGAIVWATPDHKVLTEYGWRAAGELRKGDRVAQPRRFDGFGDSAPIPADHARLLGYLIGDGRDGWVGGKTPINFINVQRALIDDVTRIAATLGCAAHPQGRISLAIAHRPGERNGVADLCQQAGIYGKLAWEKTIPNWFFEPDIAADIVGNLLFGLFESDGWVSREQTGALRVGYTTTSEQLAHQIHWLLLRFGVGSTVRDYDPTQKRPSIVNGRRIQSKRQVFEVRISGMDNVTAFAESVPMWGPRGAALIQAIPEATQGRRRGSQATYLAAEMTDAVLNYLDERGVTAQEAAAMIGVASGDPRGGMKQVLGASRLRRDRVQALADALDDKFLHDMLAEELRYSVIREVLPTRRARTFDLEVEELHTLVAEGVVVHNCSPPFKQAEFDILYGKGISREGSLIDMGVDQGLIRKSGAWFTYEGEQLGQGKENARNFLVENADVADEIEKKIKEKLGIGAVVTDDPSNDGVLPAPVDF
YopH inh = YopH tyrosine phosphatase inhibitors, primary screen, biochemical, fluorescence Ex485/Em525; YopH tyrosine phosphatase [Yersinia enterocolitica]; inhibition, %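 (about 10 µM by stock and volumes)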; 140,000 compounds, 0.16% hits;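 active = inhibition of 50% or more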;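 also: controls were vehicle for no effect and minimum signal wells for full effect; inactives centre near -20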
Arbovirus inh = antivirals against arbovirus infection, primary screen, cell-based, full library, 10K replicate subset; 200,000 compounds, 0.37% hits; arbovirus infection cell-based antiviral screen; AID 1251, 2008; inhibition, % at 10 µM;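 active = inhibition from about 30%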;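 also: bluetongue infection of BSR cells; cell survival read as ATP light after 72 h; 0% = infected wells without compound and 100% = uninfected wells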
Mtb betalactam = beta-lactam sensitization of Mtb H37Rv, H37Rv. AID 434955, 2010. M. tuberculosis H37Rv growth with meropenem, percent inhibition; hits of this screen are not shown here. inhibition, % at 25 µM. 330,000 compounds, 0.27% hits;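 active = about 74% or more and at least 40 points above the plate without the antibiotic, then above 30% in a dose series; inconclusive = first-round hits that could not be retested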;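 also: growth measured after seven days incubation then overnight dye step; 0% = bacteria only wells and 100% = bacteria with antibiotic; twin plates without the antibiotic show which effects depend on it; some results filed as inactive read as strong as hits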
Arbovirus inh repeat = second read-out of Arbovirus inh, no call of its own (marks repeat the call); inhibition, %; measured here: 10K subset replicate screen; many hits read low in the repeat;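 first of two repeat runs on a subset; 0% = infected and 100% = uninfected wells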
Starred values were filed as active, the others as inactive; ? = inconclusive; nt = not tested or not shown. This is a subset; rates above refer to the full screens.

SMILES	Mtb growth	RecA intein inh	YopH inh	Arbovirus inh	Mtb betalactam	others
Cc1ccsc1C(=O)C1CCCN(Cc2cnn(C(C)C)c2)C1 (stereo not given)	9%	-1.6	nt	10	7
COP(=O)(OC)C(Nc1cc(Cl)cc(Cl)c1)c1cccc(O)c1 (stereo not given)	3%	2.1	nt	24	6
CN(C)c1ccc(NC(=O)c2ccc(N3CCOCC3)nc2)cc1	nt	0.8	nt	nt	-1
C/C(N)=C(/C#N)C(=O)COC(=O)c1oc2ccccc2c1COC(C)C	-3%	-3.8	nt	7	3
COc1ccc(Cn2c(C)nc3oc4cc(OC)ccc4c(=O)c3c2=O)cc1	-2%	nt	-42	1	nt
COc1ccccc1CNC(=O)CCCN1C(=O)COc2ccc(C)cc21	0%	0.6	-36	-2	-7
CCOc1ccccc1C1CC(=O)NC(SCC(=O)Nc2nccs2)=C1C#N (stereo not given)	6%	3.4	4	0	-8
O=C(Nc1cccc(Cl)c1Cl)C1CCN(C(=O)c2cccs2)CC1	nt	0.4	nt	nt	2
O=C1C2C3C=CC([C@@H]2C(=O)N1C1CC1)[C@H]1C(=O)N(C2CC2)C(=O)C31 (stereo not given in full)	2%	1.0	-12	7	-8
O=C(/C=C/c1ccc(S(=O)(=O)N2CCOCC2)cc1)NCc1ccccc1	-5%	2.3	-18	1	0
COC(=O)c1cc(OC)c(OC)cc1NC(=O)c1ccc(C)cc1	7%	0.7	-16	-6	10
CCCCS(=O)CC(COc1ccc(Cl)cc1)OC(=O)c1ccccc1 (stereo not given)	-6%	11	-34	0	-1	Arbovirus inh repeat=5
COc1ccc(C(CNC(=O)Cc2ccccc2F)N2CCCCC2)cc1 (stereo not given)	-3%	-0.5	nt	15	-1
COc1ccc(C2C(C#N)=C(SC)NC3=C2C(=O)CC(C)(C)C3)cc1 (stereo not given)	nt	-3.6	-45	-2	-9
COc1ccc(C2C(C#N)=C(/N=C/N3CCN(C)CC3)OC3=C2C(=O)CC(C)(C)C3)cc1 (stereo not given)	-2%	0.0	-42	7	-3
CC(C)NC(=O)c1ccccc1NC(=O)/C=C/c1cccc([N+](=O)[O-])c1	8%	-0.9	-20	3	-1
O=C(c1cc2ccccc2o1)N1CCN(c2ccccn2)CC1	nt	0.1	nt	nt	1
O=C(COC(=O)Cc1ccccc1[N+](=O)[O-])NC1CCCC1	7%	-2.5	nt	1	-7
CC(=O)N(C)c1ccc(NC(=O)COc2ccc(Br)cc2C)cc1	9%	2.0	-27	9	-2
O=C(O)COc1ccccc1/C=N/NC(=O)c1ccc2c(c1)OCCO2	nt	-2.5	nt	nt	7
O=C(NC1CCCCC1)C(c1cccs1)N(C(=O)C(F)(F)F)c1ccccc1 (stereo not given)	-2%	-0.3	-47	6	-5
CC12CCC(C(=O)NNc3ccc([N+](=O)[O-])cc3)(OC1=O)C2(C)C (stereo not given)	nt	-2.8	nt	nt	93
COc1ccc(-c2noc(N3CCC(C(=O)N(C)c4ccccc4)CC3)n2)cc1	nt	-3.3	nt	nt	0
O=C(CC1(O)C(=O)N(CCc2ccccc2)c2ccccc21)c1ccccn1 (stereo not given)	-3%	2.1	nt	-9	-3
Cc1nc2sc(C(c3ccc(Br)cc3)N3CC(C)OC(C)C3)c(O)n2n1 (stereo not given)	-10%	0.4	-16	5	1

Of the compounds above, these have a furan ring, fused or not:
SMILES	Mtb growth	RecA intein inh	YopH inh	Arbovirus inh	Mtb betalactam	others
C/C(N)=C(/C#N)C(=O)COC(=O)c1oc2ccccc2c1COC(C)C	-3%	-3.8	nt	7	3
O=C(c1cc2ccccc2o1)N1CCN(c2ccccn2)CC1	nt	0.1	nt	nt	1

Two records drawn at random from those above:
SMILES	Mtb growth	RecA intein inh	YopH inh	Arbovirus inh	Mtb betalactam	others
O=C(NC1CCCCC1)C(c1cccs1)N(C(=O)C(F)(F)F)c1ccccc1 (stereo not given)	-2%	-0.3	-47	6	-5
COc1ccc(C(CNC(=O)Cc2ccccc2F)N2CCCCC2)cc1 (stereo not given)	-3%	-0.5	nt	15	-1

4 entries out of the list, ordered by count of non-hydrogen atoms, smallest number first.
SMILES	Mtb growth	RecA intein inh	YopH inh	Arbovirus inh	Mtb betalactam	others
O=C(Nc1cccc(Cl)c1Cl)C1CCN(C(=O)c2cccs2)CC1	nt	0.4	nt	nt	2
COc1ccc(C(CNC(=O)Cc2ccccc2F)N2CCCCC2)cc1 (stereo not given)	-3%	-0.5	nt	15	-1
O=C(CC1(O)C(=O)N(CCc2ccccc2)c2ccccc21)c1ccccn1 (stereo not given)	-3%	2.1	nt	-9	-3
COc1ccc(-c2noc(N3CCC(C(=O)N(C)c4ccccc4)CC3)n2)cc1	nt	-3.3	nt	nt	0

(continued)
SMILES	Mtb growth	RecA intein inh	YopH inh	Arbovirus inh	Mtb betalactam	others
CC(C(=O)NCc1ccco1)n1ccc2cc(S(=O)(=O)N3CCCC3)ccc21 (stereo not given)	nt	0.1	nt	nt	-3
CCCCc1nc2cc(C(=O)N3CCCCC3CC(=O)OCC)ccc2o1 (stereo not given)	nt	2.8	nt	nt	?
Cc1ccc(NC2=CC(=O)CC(C)(C)C2)cc1C	-6%	nt	-37	12	-16
COc1ccc(Cl)cc1NC(=O)CSc1nc(C)cc(C)n1	-3%	-1.4	nt	18	-3
CCSc1nnc(NC(=O)CSc2nnc(-c3c[nH]c4ccccc34)n2CC)s1	7%	-2.7	-26	24	1
NS(=O)(=O)c1ccc(CNC(=S)NC2CCCC2)cc1	1%	-3.6	nt	-2	-11
CCN(C(=O)c1cnc(N2CCN(c3ncccn3)CC2)c2ccccc12)c1cccc(Cl)c1	12%	18	-20	-36	54
COc1cc(C(=O)NC23CC4CC(CC(C4)C2)C3)cc(OC)c1OC	nt	3.6	nt	nt	-10
CC(C)NC(=O)c1ccc(COCC(F)(F)F)cc1	5%	-2.5	-22	1	2
O=S(=O)(N/N=C/c1ccccc1OCc1ccc(Cl)cc1)c1ccccc1	2%	6.0	-30	-12	11
O=[N+]([O-])c1cc(S(=O)(=O)Nc2ccc(Cl)cc2)ccc1N/N=C/c1ccncc1	-2%	-0.8	nt	-4	3
Cc1ccc(S(=O)(=O)N2CCN(C(=O)c3ccco3)CC2)cc1C	nt	1.3	nt	nt	0
CCc1ccccc1NC(=O)CCC(=O)OCC(=O)c1ccc(-c2ccccc2)cc1	-2%	0.8	-6	0	1
O=C(O)CC(Cc1ccccc1)C(=O)Nc1ccc([N+](=O)[O-])cc1 (stereo not given)	-4%	-5.0	-31	-2	-2
O=C1CC(Sc2ncccn2)C(=O)N1c1ccccc1C(F)(F)F (stereo not given)	-3%	5.2	5	1	-2
COc1ccccc1N1CCN(C(c2cc3ccc(C)cc3[nH]c2=O)c2nnnn2C2CCCC2)CC1 (stereo not given)	-2%	-2.1	-49	-1	3
NC(Cc1ccc(O)c([N+](=O)[O-])c1)C(=O)O (stereo not given)	-5%	-0.5	-27	4	1
CC(C)CCNC(=O)c1onc(CSc2ccccc2)c1C(=O)NCCC(C)C	19%	-0.4	nt	nt	-9
CCOc1ccccc1CNC(=O)CCc1cn(C)c2ccccc12	nt	5.2	nt	nt	0
O=C(CSC1=NC(=O)C(Cc2ccccc2)C(=O)N1)Nc1ncc(Br)cc1Br (stereo not given)	-3%	1.9	nt	-2	4
Cc1c(NC(=O)/C(=C/c2cccs2)c2cccs2)c(=O)n(-c2ccccc2)n1C	-2%	-3.0	-22	4	0
CCSc1nnc2c(n1)OC1(CCCC1)Nc1ccccc1-2	6%	1.3	-46	14	3	Arbovirus inh repeat=0
Cc1noc(C)c1S(=O)(=O)NCCc1ccc(S(N)(=O)=O)cc1	-13%	-8.9	-39	6	0
COc1ccc(NC(=O)CN(C)S(=O)(=O)c2ccc3c(c2)NC(=O)CS3)cc1	nt	1.0	nt	nt	3
CCn1cc([N+](=O)[O-])c(C(=O)N2N=C(c3ccc4ccccc4c3)CC2c2ccccc2O)n1 (stereo not given)	16%	9.9	-18	-29	97
Next records:
SMILES	Mtb growth	RecA intein inh	YopH inh	Arbovirus inh	Mtb betalactam	others
CN(C)C(CNC(=O)c1cc(S(=O)(=O)N(C)c2ccc(F)cc2)ccc1Cl)c1ccco1 (stereo not given)	nt	0.1	nt	nt	-12
CCOC(=O)c1cnc(-n2nc(C)cc2C)nc1N(C)C	5%	0.0	-10	1	78
CCCC(=O)c1cc2c(cc1NC(=O)CC)OCCO2	7%	-1.5	nt	-2	-5
CCCCOC(=O)CCn1[nH]c(=O)c2ccccc2c1=O	-11%	-2.0	-30	-1	?
CN1CCN(c2ccc(NC(=O)c3ccc(C#N)cc3F)cc2Cl)CC1	6%	-2.9	nt	-14	-12
COc1ccc(C(C)NCCC(c2ccc(OC(C)C)cc2)c2ccccc2OC)cc1 (stereo not given)	nt	14	nt	nt	100
Cc1ccc(-c2nnc(-c3ccc(Br)cc3)o2)o1	-1%	0.1	21	4	-2
CC(C)[C@H](NC(=O)N1CC(=O)Nc2ccccc21)C(=O)Nc1nccs1	nt	1.7	nt	nt	-8
O=C1CCC(N2C(=O)c3ccccc3C2=O)C(=O)N1 (stereo not given)	-10%	-1.6	nt	-1	-2
COc1cccc(CN2CCN(Cc3cccc(Br)c3)CC2)c1OC	nt	1.0	nt	nt	1
Cn1c(=O)c(C(=O)COC(=O)c2cc(C(F)(F)F)nc3ccccc23)c(N)n(Cc2ccccc2)c1=O	nt	11	-12	9	56
Cc1cc(C(=O)NNC(=O)c2cccc(S(=O)(=O)N3CCOCC3)c2)c2ccccc2n1	-2%	-2.0	nt	11	-1
O=C(CCl)Nc1ccc2c(c1)OCO2	69%	5.9	nt	18	90
COc1ccccc1CN=C1NC(=O)C(CC(=O)Nc2ccc(OC)c(OC)c2)S1 (stereo not given)	-4%	2.3	-16	0	-2
COc1cc(CNCCCN2CCOCC2)cc(Br)c1OCc1ccc(Cl)cc1	68%	0.9	nt	-21	72
CC(=O)Nc1nnc(S(=O)(=O)N2CCN(c3ccc([N+](=O)[O-])cc3Cl)CC2)s1	nt	-3.6	nt	nt	-6
COc1cccc(CNC(=O)C(=O)NCC(c2ccco2)N2CCOCC2)c1 (stereo not given)	1%	7.0	-24	-2	-3
CCc1cccc(CC)c1NC(=O)COC(=O)/C(C#N)=C/c1ccc(OC)cc1	-6%	-3.4	-24	-2	1
Nc1ncnc(NCc2ccc(F)cc2)c1[N+](=O)[O-]	-7%	2.7	nt	8	-1
COc1ccc(Oc2coc3cc(OC(=O)/C=C/c4ccccc4)ccc3c2=O)cc1	4%	0.9	-14	-9	0
CCOc1ccc2[nH]c3nc(SCC(=O)OC(C)C)nnc3c2c1	nt	-1.5	nt	nt	-5
CC1(C)SCC(C(=O)O)N1C=O (stereo not given)	-1%	0.0	-4	3	3	Arbovirus inh repeat=-1
Cc1[nH]c(=O)[nH]c(=O)c1Cc1cccc2ccccc12	-1%	1.7	nt	8	-6
CC(=O)NCC(=O)NC1(C(=O)NC2CCCC2)CCCCC1	-8%	0.0	-23	12	-1	Arbovirus inh repeat=2
Cc1ccc(N2C(N)=C(C#N)C(c3cccs3)C3=C2CC(C)(C)CC3=O)cc1 (stereo not given)	4%	8.6	-12	-12	-25
(cont.)
SMILES	Mtb growth	RecA intein inh	YopH inh	Arbovirus inh	Mtb betalactam	others
O=C(C1CC1)N1CCCN(C(=O)C2CC2)CC1	-10%	nt	-26	7	8	Arbovirus inh repeat=4
COCC(C)NC(C(=O)Nc1ccc(C)c(Cl)c1)c1ccccc1 (stereo not given)	-14%	3.4	-25	-1	-2
C=Cc1ccc(CN2CCCN(Cc3ccc(F)cc3)S2(=O)=O)cc1	nt	-1.5	nt	nt	3
COc1ccc(OC)c(-n2c(O)cnc2Nc2nc(C)cc(C)n2)c1	4%	5.3	-40	3	-5
CSc1cccc(NC(N)=O)c1	-10%	0.7	nt	nt	21
Cc1cc(=O)oc2cc(OCC(O)CN3CCN(c4ccc(F)cc4)CC3)ccc12 (stereo not given)	18%	-14	-30	0	5	Arbovirus inh repeat=2
Cc1ccc(NC(=O)CN2CCN(c3ccccn3)CC2)c(Cl)c1	-2%	3.1	-9	0	22
Cc1cc(Cl)ccc1Oc1ccc(C(N)=O)cc1[N+](=O)[O-]	4%	-1.5	-14	-14	-4
Cc1ccc(C(C)(C)NC(=O)C2CCC(=O)N(C3CCCCCC3)C2)cc1 (stereo not given)	nt	2.5	nt	nt	-2
O=S(=O)(/N=C(\c1ccccc1F)N1CCCCC1)c1ccccc1	-2%	-0.4	-8	2	0
C=C(C)COc1ccc(-c2ncncc2Oc2ccc(OC)cc2)c(O)c1	?	5.2	-27	11	22
Cc1ccc2c(c1)C1CN(C)CCC1N2C(=S)NC(=O)c1ccc(Cl)cc1Cl (stereo not given)	49%	4.6	nt	nt	-4
O=C(NC1CCCCC1)N1CCN(Cc2ccco2)CC1	2%	-1.9	nt	1	-2
